Bioassay records from PubChem BioAssay.
NPYLR7 agonist = mosquito NPYLR7 agonism; 0.15% of 270,000 active; HEK293T NPYLR7/Galpha15, GCaMP6s calcium fluorescence; activation, % at 10 µM; AID 1259423; in the data active = activation above about 40%;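 also: 0% = vehicle and 100% = reference agonist at the receptor; some compounds past the cut are filed as inactive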
NPYLR7 agonist max-min = second read-out of NPYLR7 agonist, no call of its own (marks repeat the call); activation, %; measured here: Max-Min RFU normalised activation; some inactives read as strong as hits;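 span of the calcium signal over five minutes; 0% = vehicle and 100% = native peptide agonist; compound fluorescence can raise it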
Starred values were filed as active, the others as inactive; & = joins results of further samples. An excerpt (hit frequency here may not be typical).

Each structure is followed by: NPYLR7 agonist, NPYLR7 agonist max-min
Fc1ccc(-c2nnc(SCc3nnc(-c4ccccc4)o3)c3ccccc23)cc1
    2, 9
Cc1c(O)cccc1C(=O)N1CCC(c2[nH]ncc2-c2cccc(F)c2)CC1
    17, 11
Cc1csc2nc(CSCCC(=O)N3CCc4ccccc43)cc(=O)n12
    -3, -3
O=S(=O)(c1ccc2c(c1)CCC2)N1CCC(c2nc3ccccc3o2)CC1
    1, 1
CC(=O)NC(CC(C)C)C(=O)N1CCN(Cc2ccc(-c3noc(C4CCCC4)n3)cc2)CC1 (centres undefined)
    23, 18
CC(Cc1ccco1)NC(=O)C1CCCN(C(=O)c2ccccc2)C1 (centres undefined)
    3, 0
CN(Cc1cc(-c2ccccc2)no1)Cc1ccc(-c2ccn[nH]2)o1
    8, 6
CCc1cnc(C)nc1N1CCCC(n2cc(C(=O)NC3CCCC3)nn2)C1 (centres undefined)
    0, 8
COc1ccc2nc(CCNC(=O)CC(=O)Nc3cc(C)cc(C)c3)[nH]c2c1
    13, 8
CCC(=O)OC(C(C)=O)C1CC(C)N(c2ccccc2)N1C(C)=O (centres undefined)
    -2, -6
Cc1cccc(NC(=O)CC(=O)N(C)CCCO)c1C
    15, 11
NC(=O)Cc1csc(NC(=O)c2ccc(-n3cccc3)c(F)c2)n1
    6, -1
CC(=O)Nc1ccc(C(=O)N(C)Cc2ccc3c(c2)OCO3)s1
    -9, -7
Cc1ccc(-c2ccc(=O)n(CCCNC(=O)C(C)Oc3ccccc3F)n2)cc1 (centres undefined)
    -2, -3
CN1CCN(C(=O)c2ccccc2NC(=O)c2ccco2)CC1
    3, 2
C(=Nc1ccc(C23CC4CC(CC(C4)C2)C3)cc1)c1cccnc1
    -3, -9
CCc1ccc2occ(CC(=O)N3C[C@@H]4[C@H](C3)[C@H]3CC[C@@H]4O3)c2c1
    16, 10
CC(C)C(N)c1csc(Nc2ccc(C(F)(F)F)cn2)n1 (centres undefined)
    -2, -6
O=C(NCCCc1ccccn1)c1ccc(-c2ccc(F)c(CO)c2)nc1
    -2, -5
COc1ccc(S(=O)(=O)N2CC(=O)N3CCc4cc(OC)c(OC)cc4C3C2)cc1OC (centres undefined)
    0, 11
CC1CCCCN1CCNC(=O)c1cc(C2CC2)nn1C(C)(C)C (centres undefined)
    1, -2
O=C(O)C=Cc1ccc(O)c(O)c1
    1, -7
Cc1cccc(C(=O)NC(C(=O)N2CCOCC2)C2CCN(C(=O)CCc3ccccc3)CC2)c1 (centres undefined)
    -2, 5
CCOC(=O)c1ccc(NC2CC(C)(C)NC(C)(C)C2)nc1
    6, 2
CN1CCC(N(C)Cc2ccc([N+](=O)[O-])s2)CC1
    1, -1
CC1=NOC(C(=O)Nc2ccccc2OCCCc2ccccc2)C1 (centres undefined)
    -3, -3
Cc1c(=O)n(OCc2ccc(I)cc2)c2ccccc2[n+]1[O-]
    -7, -14
CC(C)c1cc(CN2CCCC(CNC(=O)c3ccc[nH]3)C2)on1 (centres undefined)
    1, 2
COc1ccc(CN(CC2CCCO2)CC(O)c2ccccc2)cc1OC (centres undefined)
    15, 20
Oc1ccc(-c2ncc(F)c(N3CCCC3)n2)cc1
    1, 0
Cc1cc(=O)[nH]c(-n2nc(C)c(CCC(=O)Nc3ncccc3C)c2C)n1
    16, 16
CCCC(O)CN(CCOC)Cc1cc(C)ccc1C (centres undefined)
    -2, -3
Cc1cccc(OCC(=O)NCC(=O)N=Nc2c(O)[nH]c3ccc([N+](=O)[O-])cc23)c1
    1, -8
CCc1nc(-c2c(-c3ccccc3)ncn2Cc2n[nH]c3c2CCC3)c(C)[nH]1
    8, 3
COc1cc(-c2cc(C(F)(F)F)n3ncc(C(=O)NC4CCCCC4)c3n2)cc(OC)c1OC
    -7, -9
CC(Cl)C(=O)NC1CC2CCC(C1)N2CCc1ccc(F)cc1 (centres undefined)
    6, 7
CCN(C/C=C/c1ccccc1)C(=O)c1cccc2ccnn12
    15, 12
Cc1nn(Cc2nnc(SCC(=O)O)n2-c2ccccc2F)c(C)c1C
    1, -2
CCC(C)N(Cc1cccnc1)C(=O)c1cccc(NC(=O)c2ccoc2C)c1 (centres undefined)
    -5, -12
COCCn1c(C)cc(O)c(C(c2ccccn2)N2CCC(C)CC2)c1=O (centres undefined)
    9, 2

Rewritten with tabs: 5 of the compounds above
Molecule	NPYLR7 agonist	NPYLR7 agonist max-min
CN(Cc1cc(-c2ccccc2)no1)Cc1ccc(-c2ccn[nH]2)o1	8	6
CCc1nc(-c2c(-c3ccccc3)ncn2Cc2n[nH]c3c2CCC3)c(C)[nH]1	8	3
O=S(=O)(c1ccc2c(c1)CCC2)N1CCC(c2nc3ccccc3o2)CC1	1	1
O=C(O)C=Cc1ccc(O)c(O)c1	1	-7
Cc1cccc(OCC(=O)NCC(=O)N=Nc2c(O)[nH]c3ccc([N+](=O)[O-])cc23)c1	1	-8

A different layout for some results above.
Compound: O=C(NCCCc1ccccn1)c1ccc(-c2ccc(F)c(CO)c2)nc1
- NPYLR7 agonist: -2
- NPYLR7 agonist max-min: -5
Compound: COc1ccc(S(=O)(=O)N2CC(=O)N3CCc4cc(OC)c(OC)cc4C3C2)cc1OC (centres undefined)
- NPYLR7 agonist: 0
- NPYLR7 agonist max-min: 11
Compound: CC1CCCCN1CCNC(=O)c1cc(C2CC2)nn1C(C)(C)C (centres undefined)
- NPYLR7 agonist: 1
- NPYLR7 agonist max-min: -2
Compound: O=C(O)C=Cc1ccc(O)c(O)c1
- NPYLR7 agonist: 1
- NPYLR7 agonist max-min: -7

Further entries:
Each structure is followed by: NPYLR7 agonist, NPYLR7 agonist max-min
COc1ccccc1-c1cc(C(=O)N2CCC(Cc3ccccc3)CC2)nc2cc(C(C)(C)C)nn12
    14, 12
C=Cc1ccc(COC(=O)c2nnn(-c3ccc(Cl)cc3)c2C)cc1
    10, 0
CCCC(=O)Nc1scc2c(C(=O)OCC)nn(-c3ccc(C(F)(F)F)cc3)c(=O)c12
    12, 9
Cc1cc(C(=O)N2CCCC(CNS(=O)(=O)C(C)C)C2)c(C)n1Cc1ccco1 (centres undefined)
    -8, -9
COc1cccc(C(=O)N2CCN(Cc3ccc4nsnc4c3)CC2)c1
    6, 4
COCC(=O)N1CCC(C(=O)Nc2ccc(-c3cccc(C)c3)cc2)CC1
    0, -3
c1ccc(OCc2noc(CN3CCC(c4nc5ccccc5[nH]4)CC3)n2)cc1
    11, -2
Cc1nnc(NC(=O)/C=C/c2ccc(Cl)cc2Cl)s1
    -3, -7
CC1(C(=O)NC2CCCCCC2)CCN1C(=O)CCc1ccccc1 (centres undefined)
    9, 6
Cc1c(C(=O)c2cccs2)sc2nc3c(c(=O)n(C)c(=O)n3C)n12
    1, 8
O=C1OC(c2ccc(Br)cc2)=N/C1=C\N1CCOCC1
    0, -5
CC(C)COc1cncc(N2CCCC(CC(N)=O)C2)n1 (centres undefined)
    6, -8
O=C(/C=C/c1ccc2c(c1)OCO2)NCCc1ccc(F)cc1
    -8, -12
CC(C)N(CC(=O)N(CCc1c[nH]c2ccccc12)Cc1ccc(Cl)c(Cl)c1)Cc1cccc(C(F)(F)F)c1
    18, 20
C#CCNC(=O)c1cnc2c(-c3cccs3)cnn2c1C
    18, 11
COc1ccc(C)cc1C(C)NC1CCC(C#N)(c2ccccc2)CC1 (centres undefined)
    9, 5
COC(=O)c1ccc2c(C(=O)C(F)(F)F)cn(CC(N)=O)c2c1
    -1, -4
COC(=O)c1ccc(Cn2c(C)c(C(=O)NCc3ccco3)sc2=O)o1
    -2, -3
O=C(NCCc1nc2ccccc2[nH]1)C(=Cc1ccccc1)c1ccccc1
    -16, -22
COc1ccc(N2CCN(C(=O)c3ccccc3N3CCC(NC(=O)CC(C)(C)C)CC3)CC2)cc1
    -1, 1
O=C(Cc1csc(NC(=O)c2ccc[nH]c2=O)n1)NC1CC1
    -2, 0
CNS(=O)(=O)c1ccc(C(=O)Nc2nc(-c3ccc(NS(C)(=O)=O)cc3)cs2)cc1
    4, 9
Cn1c(CN2CCOc3ccc(CN4CCN(c5ccc(F)cc5)CC4)cc3C2)nc2ccccc21
    12, 3
CCCCc1ccc(NC(=O)COC(=O)C23CCC(=O)N2CCS3)cc1 (centres undefined)
    2, -2
N#CC(NC(=O)CC1(O)CCCCC1)c1ccc(F)cc1F (centres undefined)
    3, 1
Cc1cc(NC(=O)C2(C)CCN2C(=O)CC(c2ccccc2)c2ccccc2)sn1 (centres undefined)
    -4, -3
C=C(C)Cn1c(=O)c2c(nc3n(-c4ccc(C(=O)OCC)cc4)c(C)c(C)n23)n(C)c1=O
    2, 2
Cn1c(C(=O)N2COCC2(C)C)cc2c(=O)n3ccccc3nc21
    1&-6, -1&-8
CC1(C)ON=C(c2ccco2)N(C/C=C/c2ccccc2)C1=O
    13, 6
CC(=O)N1CCN(CC(=O)N2N=C(c3ccc(C)cc3C)CC2c2cccc(F)c2)CC1 (centres undefined)
    8, 15
O=S(=O)(c1ccc(S(=O)(=O)N2CCCC2)cc1)c1ccc(S(=O)(=O)N2CCCC2)cc1
    -4, 1
CCCOc1cc(S(=O)(=O)Nc2ccccc2C)ccc1Br
    1, 2
Cc1ccn2cc(CNC(=O)c3cccc(-n4cccn4)c3)nc2c1
    4, 0
CN1CCN(Cn2ncn(C3CC3)c2=S)C(c2ccccc2)C1 (centres undefined)
    5, 4
CN1CCN(C(=O)C23CCC(C2)C(C)(C)C3=O)CC1 (centres undefined)
    -3, 5
CCc1cc2c(=O)n(Cc3ccco3)c(SC)nc2s1
    6, 3
Cc1sc2nc(-c3ccco3)oc(=O)c2c1C
    7, 5
C=CC(C)(O)CN(CCOC)Cc1cccc(C)c1 (centres undefined)
    -2, 10
CCOC(=O)c1ccc2c(c1)nc(SCc1ccc(/C=C/c3ccccc3)cc1)n2CCc1ccc(OC)cc1
    9, 5
COCCCN(Cc1c(-c2cccc(C)c2)noc1N1CCCC1)C(=O)c1cccc(F)c1
    4, 11
COc1ccc(-n2nnc(C(=O)OCc3cccc(OC)c3)c2C)cc1
    18, 11
CCCCS(=O)(=O)N1CCN(C(=S)c2ccc(N(C)C)cc2)CC1
    -1, 5
Fc1cc(F)c2nc(N3CCc4ccccc4C3)sc2c1
    3, 0
C=CC[C@@H]1CC=C[C@@H](c2ccccc2)N1C(=O)c1ccc2nnnn2c1
    -2, -5
N#Cc1cccc(CNCC(c2ccccc2)N2CCCC2)c1 (centres undefined)
    7, 5
CN(c1ccccc1)P(=O)(N(C)c1ccccc1)N(C)c1ccccc1
    -5, -5
C=CCOC(C)C(=O)Nc1ncn(CC(=O)N2CCCCCC2)n1 (centres undefined)
    7, 6
Cn1c(=O)[nH]c(=O)c2c1nc(SCCN1CCOCC1)n2Cc1ccccc1
    1, 14
COCC(=O)Nc1ccc(-n2nc(OC(C)C)nc2-c2ccc3c(c2)OCO3)cc1
    2, 11
CC1(C)C2CCC1(CS(=O)(=O)N1CCC(C(=O)O)CC1)C(=O)C2 (centres undefined)
    12, 11
Cc1cc(C(C)(C)C)cc(C)c1S(=O)(=O)NCc1ccc(N2CCOCC2)nc1
    4, 8
CCCN(CC(F)F)C(=O)NC(C)C(=O)N1CCCCC1C (centres undefined)
    1, 0
CC(C)[C@H]1[C@H](COCc2ccccc2)CN(c2ccccc2)S1(=O)=O
    2, 3
Cc1ccc(C(C)NC(=O)CN2CCCC2c2ccc3c(c2)OCCCO3)cc1C (centres undefined)
    1, 0
CC(C)c1nnc2sc(/C=C/c3cccs3)nn12
    -3, -4
CCCOc1ccc(-c2cc(C(=O)N3CC(C)CC(C)C3)c3ccccc3n2)cc1 (centres undefined)
    -8, -12
CCOC(=O)c1nn(-c2ccc(C)cc2)c(=O)c2c(NC(=O)Cc3cccc4ccccc34)scc12
    5, 0
CCC(C)N(Cc1ccncc1)Cc1cccc(C)c1O (centres undefined)
    0, -4
Cc1ncoc1C(=O)N1CCCC(C(=O)Nc2cccc(-c3ccc(F)cc3)c2)C1 (centres undefined)
    2, 1
CC(NC(=O)CCCc1nc2ccccc2c(=O)[nH]1)c1cccc(C(F)(F)F)c1 (centres undefined)
    0, -3

Continuation:
Each structure is followed by: NPYLR7 agonist, NPYLR7 agonist max-min
CCOCCOC(=O)C1=C(C)NC(=O)NC1c1ccc(Cl)c(Cl)c1 (centres undefined)
    -5, -6
COc1ccccc1-n1cc(C(=O)N2CC(c3cccnc3)C2)cn1
    18, 7
Cc1cc(C)c2c(N)c(-c3nn4c(=O)cc(C)nc4s3)sc2n1
    8, 5
COC(=O)c1[nH]ncc1CN(C)Cc1csc(-c2ccccc2)n1
    18, 6
CC(C)(C)c1ccc(S(=O)(=O)Nc2cccc(S(C)(=O)=O)c2)cc1
    -1, 3
CCOC(=O)C1(Cc2cccc(F)c2)CCN(Cc2nc3ccccc3[nH]2)CC1
    9, 8
CC(C)c1cc(CNC(=O)N2CCC(Cc3cnn(C)c3)C2)on1 (centres undefined)
    5, 2
CC(C)NC(=O)CCCn1nc(-c2ccco2)ccc1=O
    3, 6
Cc1ccnc(SCc2cc(=O)c(OC(=O)c3cccc4ccccc34)co2)n1
    -12, -4
CCN(CC)c1ccc2cc(-c3nnc(-c4ccc([N+](=O)[O-])cc4)o3)c(=O)oc2c1
    -12, -15
CN1CCc2c(sc(N)c2C(N)=O)C1
    13, 22
O=C(O)c1coc(CN(Cc2cccc(F)c2)C2CC2)n1
    9, 7
COC(=O)c1cc(C(=O)N2CCN(C)CC2)cc([N+](=O)[O-])c1
    -1, -3
Cc1ncc(C[n+]2csc(CCOC(=O)C34CCC(CC3)C4)c2C)c(N)n1
    1, -2
CSC(CO)C(C)Nc1ncnc2cc(F)c(F)cc12 (centres undefined)
    4, -5
CCCN1CCC(C)(C(=O)Nc2ccc3c(c2)OCO3)C1 (centres undefined)
    -1, -2
CCc1nc2ccc(C(=O)Nc3ccc(C(N)=O)cc3)cn2c1N(CCN(C)C)CC1CC1
    -1, -6
